gsp antag: gsp mutant antagonism. gsp-mutant cells, cAMP HTRF, 30 min; control for the full effect not named in the record. Potency, µM (series often up to 76.9 µM), inactives show top-dose activity change, negative = inhibition, actives largely listed as inhibitors. 340,000 compounds, 0.4% hits; active = falling curve of any shape with a large fitted effect; inconclusive = falling curve, mostly with a smaller effect; inactive = flat or rising curve; cell line not stated here;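 note: intracellular cAMP measured with PDE inhibitor Ro 20-1724 present during compound exposure; potency is the fitted concentration of half-maximal effect; % is set by controls: 0 for no effect and ±100 for the full control effect; nearly all actives have a fitted effect of over 65% in size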
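Measurement of cellular cAMP by homogeneous time-resolved fluorescence following a 30 min compound exposure at 37C. The PDE inhibitor […] was present throughout; the assay buffer was DPBS with 0.05% BSA and 0.005% Tween 20.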
ClpP mod: qHTS Assay for Activators of ClpP. AID 651965, 2013. Potency, µM (series often up to 57.5 µM), for inactives: at the top dose activity change, negative = active. ATP-dependent Clp protease proteolytic subunit (Bacillus subtilis (strain 168)), P80244. purified B. subtilis ClpP, FRET peptide cleavage, 20 min. 340,000 compounds, 1.9% hits; active = well fitted falling curve with a large enough effect; inconclusive = small, poorly fitted or top-dose-only effect; inactive = no such curve, though single readings can be large or run the other way; note: potency is the fitted concentration of half-maximal effect; the source files actives as falling curves though it sought activators and does not explain the sign; nearly all actives have a fitted effect of over 65% in size; many hits overshoot -100%
Target sequence (P80244 whole entry, looked up): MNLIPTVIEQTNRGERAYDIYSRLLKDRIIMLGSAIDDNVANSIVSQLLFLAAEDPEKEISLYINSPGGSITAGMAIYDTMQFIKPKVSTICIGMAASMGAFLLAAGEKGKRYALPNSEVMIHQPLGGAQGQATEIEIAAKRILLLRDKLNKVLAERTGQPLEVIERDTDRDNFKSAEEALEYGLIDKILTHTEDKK
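FRET quenching reversal measured ClpP activation: 10 microg/mL B. subtilis ClpP at pH 8 with the FRET-FV decapeptide, read at 430 nm after 320 nm excitation. The 20-min minus 0-min signal was scaled between DMSO/no-enzyme wells and ADEP (5.8 microM final).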
PINK1 modulator: PINK1 expression modulation; PINK1 immunofluorescence, high-content cytometry, 24 h; Potency, µM (titrated, usually from 76.6 µM), for inactives: top-dose activation (PINK1 increase), hits mostly activators; 410,000 compounds, 0.2% hits; active = well fitted activation curve with a large enough effect; inconclusive = small, poorly fitted or top-dose-only effect; inactive = flat fitted curve, though single readings scatter; cell line not stated here;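 note: potency is the fitted concentration of half-maximal effect; % of control where 0% means no effect; nearly all actives have a fitted effect of over 65% in size; a mitochondrial uncoupler was the plate control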
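Stable cell line treated 24 h with compounds at 5 concentrations (CCCP controls), then fixed and immunostained for PINK1 plus nuclear and cell stains; PINK1 immunofluorescence quantified by laser-scanning microplate cytometry.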
gsp ag: activates gsp, the McCune-Albright syndrome mutation; gsp mutant cells, cAMP HTRF, 30 min; control for the full effect not named in the record; Potency, µM (highest dose often 76.9 µM), inactives show top-dose activation (cAMP increase), hits mostly activators; 340,000 compounds, 0.13% hits; active = well fitted activation curve with a large enough effect; inconclusive = small, poorly fitted or top-dose-only effect, or another doubt; inactive = no such curve, though single readings can be large or run the other way; cell line not stated here;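 note: phosphodiesterase inhibitor Ro 20-1724 added with compounds to block cAMP breakdown; potency is the fitted concentration of half-maximal effect; nearly all actives have a fitted effect of over 60% in size; about a fifth of the inactives were tested at one dose only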
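Cells in DMEM/10% FBS with G418 were pretreated with compounds in DMSO plus […] (300 uM stock) for 30 min at 37C. cAMP was measured by HTRF (cAMP-d2 plus anti-cAMP antibody-K) after 30 min at room temperature.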
D2 agonist: agonists of human D2 dopamine receptor (beta-arrestin) | DiscoveRx PathHunter D2 beta-arrestin, luminescence, 90 min; 100% = 57 uM dopamine signal | activation, % (no concentration beside the values) | 360,000 compounds, 0.084% hits | AID 624465; in the data active = activation above about 40%; inconclusive = about 15% to 40%; inactive = below about 15%; note: compound concentration not given in the record; the text of the record calls up to 30% inactive
Target sequence (P14416 whole entry, looked up): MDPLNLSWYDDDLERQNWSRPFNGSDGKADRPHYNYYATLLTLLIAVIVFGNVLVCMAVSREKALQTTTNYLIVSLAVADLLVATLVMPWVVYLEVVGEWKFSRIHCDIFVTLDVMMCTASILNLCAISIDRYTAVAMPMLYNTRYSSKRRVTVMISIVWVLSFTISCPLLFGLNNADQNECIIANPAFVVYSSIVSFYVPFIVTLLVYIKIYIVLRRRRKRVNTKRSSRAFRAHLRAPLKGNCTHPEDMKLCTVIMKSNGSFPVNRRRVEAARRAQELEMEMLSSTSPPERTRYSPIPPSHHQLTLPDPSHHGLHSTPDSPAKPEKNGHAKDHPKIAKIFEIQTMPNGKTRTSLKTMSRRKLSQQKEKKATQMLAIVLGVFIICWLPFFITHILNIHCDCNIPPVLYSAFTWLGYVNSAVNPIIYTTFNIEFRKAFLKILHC
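DiscoveRx PathHunter D2 beta-arrestin cells (2,100/well) attached overnight, then compound-stimulated 90 min at 37 C in HBSS/10 mM HEPES/0.1% Tween-20 buffer; beta-galactosidase complementation read by luminescence after 1 h at ambient temperature. Dopamine 57 uM final (EC100) as control.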
Menin-MLL FL inh: displaces fluorescein MLL peptide from human menin | 290,000 tested, under 10 active | Fluorescence polarization, fluorescein-MLL peptide displacement from menin | AID 1766 | FP activity change, % at 61.4 µM; inconclusive = falling polarisation curve, or a change in total fluorescence; inactive = total fluorescence flat and polarisation flat or rising; no compound was filed as active; the % refers to the polarisation; negative = inhibition;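 note: % of control where 0% means no effect; inhibitors lower the polarisation; unlabelled MLL peptide was the positive control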
Sfp inh: inhibitors of Bacillus subtilis Sfp phosphopantetheinyl transferase; Q9F4F7; Biochemical Sfp PPTase activity, qHTS; Potency, µM, for the others: max response, negative = inhibition, usual class: inhibitors; 310,000 compounds, 3.5% hits; active = well fitted inhibition curve with a large enough effect; inconclusive = small, poorly fitted or top-dose-only effect, or another doubt; inactive = no such curve, though single readings can be large or run the other way;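 note: the enzyme is Sfp with the accession as filed and its product quenches rhodamine fluorescence; potency is the fitted concentration of half-maximal effect; 0% = enzyme reaction without inhibitor and -100% = no enzyme wells; top concentration of the series not given in the record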
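Fluorescence-quenching assay with 15 nM Sfp, 5 uM rhodamine-CoA and 12.5 uM BHQ-2-labelled ybbR peptide in pH 7.6 Hepes/MgCl2 buffer. Enzyme was pre-incubated with compound for 15 min at room temperature. Rate was taken from the 30-min fluorescence change (525/598 nm).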
* = called active by the depositor; ? = inconclusive; / = not tested or not shown; & = joins results of further samples; [ ] = another dose, or the depositor's remark.

mol	gsp ag	Sfp inh	Menin-MLL FL inh	PINK1 modulator	D2 agonist	ClpP mod	gsp antag
Cc1ccc(CNC(=O)C2CC(c3ccc([N+](=O)[O-])cc3)=NO2)cc1 (centres undefined)	6%	2%	2.8	2.8%	4.3	2.5%	3%
CC(=O)c1sc2c(c1OC(=O)c1ccc(Cl)cc1Cl)c(=O)n(-c1ccccc1)c(=S)n2-c1ccccc1	?	-23%	9.1	2.3%	-4.8	0.7%	-1%
COc1ccc(S(=O)(=O)N(CC(=O)O)c2ccccc2)cc1	3%	30%	-1.3	-0.9%[38.3 µM]	-1.3	-1.8%	0%
O=C1c2ccccc2C(=O)N1c1cccc2ccccc12	12%[15.4 µM]	5%	-4.9	-1.0%	1.1	7.9µM*	-2%
Cc1ccc(C)c(NC(=O)Cn2nc(C)c3ccccc3c2=O)c1	-14%	3%	-1.2	0.4%	-0.6	-0.2%	14%
Cc1nc(SCC(=O)c2ccc(F)cc2)n[nH]1	10%	20µM*	-0.4	-1.1%	-0.2	-1.1%	1%
COc1ccc(N=C2S/C(=C\c3cccs3)C(=O)N2CC(C)C)cc1	11%	1%	1.6	6.6%	-0.9	-1.4%	4%
Cc1ccc(-c2csc(N3C(=N)SCC3=O)n2)cc1	-27%[15.4 µM]	7%	1.9	1.5%	-1.9	/	7%
O=C(O)/C=C\c1cc2c(cc1[N+](=O)[O-])OCO2	1%[15.4 µM]	-1%	-1.8	5.8%	-2.9	/	2%
C=CCC[C@@H](Cc1ccc(F)cc1)C(=O)OC[C@@H]1CCCN1C(=O)[C@@H](CC=C)CC(=O)N(CCO)Cc1ccccc1	-5%	/	/	-0.7%	-2.5	1.7%	-16%
COC(=O)C1=C(C)NC2=C(C(=O)CC(C)(C)C2)C1c1cnn(C)c1C (centres undefined)	-18%[15.4 µM]	31%	1.9	-2.4%	0.5	-0.9%	17%
COc1ccccc1NC(=S)N1CCCCCC1	21%	21%	0.6	-0.8%	-1.4	-0.4%	10%
COC(=O)CN1C(=O)C(C)(C)Oc2ccc(C(=O)Nc3ccccc3F)cc21	22%	9%	2.1	-1.0%	2.7	/	2%
COc1ccc2c(c1)OC[C@H]1[C@H]2N2C(=O)CN(CC3CCCO3)C(=O)[C@@]2(C)[C@H]1c1ccccc1 (some centres undefined)	/	/	/	1.2%	-0.9	-0.9%	2%
CCCOc1cccc(C2/C(=C(/O)c3ccc(OC)cc3)C(=O)C(=O)N2CCN(C)C)c1 (centres undefined)	0%	0%	-2.3	0.3%	2.3	-4.2%	1%
Cc1ccc(S(=O)(=O)NCC(=O)N2CCCCC2)cc1	-14%	11%	1.0	-0.8%	1.0	-0.2%	9%
Cc1nc(-c2ccccc2)sc1C1(C)CC(c2cccc(F)c2)=NO1 (centres undefined)	/	/	/	2.4%	-4.6	-5.2%	6%
COc1ccc(CC(=O)Nc2ccc(S(=O)(=O)N3CCCCC3)cc2)cc1OC	1%	-21%	/	2.0%	0.3	-3.3%	-11%
Cc1[nH]n(-c2ccccc2)c(=O)c1C(c1cccc([N+](=O)[O-])c1)c1c(C)[nH]n(-c2ccccc2)c1=O	-4%	-12%	2.8	?	-4.6	-2.2%	?
COc1ccccc1C(CNC(=O)c1ccc(NS(=O)(=O)c2ccc(F)c(C)c2)cc1)N(C)C (centres undefined)	-10%[15.4 µM]	8%	/	-0.1%	0.2	0.8%	-1%
NNC(=O)Cc1csc(-c2ccccc2)n1	18%	6%	2.2	-0.4%	-5.8	-1.9%	6%
O=C(O)CNC(=O)CC12CC3CC(CC(C3)C1)C2	-61%[inhibitor]	10%	0.0	-1.1%	0.0	-0.8%	5%
CC(=O)c1c(OC(=O)c2ccco2)c2ccccc2n1C	-2%	-17%	-0.3	3.9%	8.0	-1.5%	?
Cc1cccc(C)c1OCC(=O)NCc1nnc(SCC(=O)NC2CCCCC2)n1C	10%	13%	0.6	0.7%	-1.4	0.7%	9%
COc1ccc(CCCCCCOCc2ccccc2)cc1	-12%	/	/	1.6%	-2.6	-2.6%	8%
CCc1ccc(C(=O)CN(C#N)c2nc(C)cc(C)n2)cc1	-5%	0%	1.8	0.8%	3.8	2.2%	-2%
Cc1ccn2c(NCc3ccc4c(c3)OCO4)c(-c3ccc(O)cc3)nc2c1	-1%	-9%	1.6	12%[38.3 µM]	2.6	?	2%
CC1CC(C)CN(C(=O)COC(=O)c2ccc([N+](=O)[O-])o2)C1 (centres undefined)	-23%	/	/	-1.7%	4.6	1.2%	-3%
COc1ccc(S(=O)(=O)N2CCCC2CNC(=O)C(=O)Nc2ccc(C)cc2)cc1 (centres undefined)	-15%[15.4 µM]	/	/	0.9%	-1.8	/	0%
Cc1ccc(S(=O)(=O)n2nccc2-c2c(-c3ccc(Cl)cc3)noc2C)cc1	10%[15.4 µM]	4%	4.3	5.2%	-2.1	/	-17%
O=C(Nc1ccccc1)c1ccccc1CSc1ccccc1	/	/	/	2.9%	-0.4	-1.3%	-13%
O=C(NCc1cccnc1)/C(=C\c1ccc(-c2ccc(Cl)c(Cl)c2)o1)S(=O)(=O)c1ccccc1	-34%[inhibitor]	-15%	12	-1.5%	-6.1	-6.8%	-13%
O=c1c2ccccc2[nH]c(=S)n1Cc1cccs1	-1%[15.4 µM]	2%	3.1	1.0%	-2.3	/	2%
COc1ccc(S(=O)(=O)N2CCN(C)CC2)cc1NC(=O)c1ccccc1F	-39%[inhibitor]	2%	-0.8	-0.3%	-1.6	/	0%
COc1ccc(CNCc2ccc([N+](=O)[O-])cc2)cc1OC	12%	-23%	-1.1	4.6%	-4.3	1.0%	6%
C=CCN(C(C(=O)OC)C(C)C)S(=O)(=O)CCNCc1ccccc1 (centres undefined)	/	/	/	0.2%	0.7	1.5%&0.3%	9%
O=C(O)c1ccc2c(=O)n3c(nc2c1)/C(=C/c1cccc(O)c1)CC3	?	28%	-5.7	0.6%	-6.2	-4.5%	-12%
CCOc1ccc(-c2cc(C(=O)Nc3ccc(C)c(NS(C)(=O)=O)c3)[nH]n2)c(C)c1	/	/	/	1.6%	3.1	2.4%	/
CCCS(=O)(=O)N1CCN(C(=O)c2cccs2)CC1	?	9%	0.2	2.2%[38.3 µM]	0.0	0.2%	2%
O=C(c1ccc(F)cc1)N1CCN(C2CCCCC2)CC1	4%	-20%	0.6	5.7%	-5.1	-2.6%	10%
C(=C\c1ccccc1)/C=N/N1CCN(Cc2ccccc2)CC1	16%[15.4 µM]	-28%	4.5	3.0%	-3.8	/	-8%
COC(=O)N1CCCCC1c1cc(C(=O)Nc2cccc3c2CCCC3)no1 (centres undefined)	/	/	/	1.3%	-3.6	-0.5%	/
O=C(COc1ccc(/C=N/NC(=O)CSCc2ccc([N+](=O)[O-])cc2)cc1)NCc1ccco1	-21%	-2%	1.2	-1.3%	5.8	-2.2%	-16%
CCN(C(=O)CSc1ncn[nH]1)C1CCCCC1	20%	14%	-2.4	5.6%[38.3 µM]	-3.3	0.4%	2%
COc1cc(C(=O)Nc2ccc3nc4n(c(=O)c3c2)CCCCC4)cc(OC)c1OC	29%	28%	/	9.6%&5.9%	3.0	-1.9%&0.3%	7%
O=C(CCCc1nc(-c2ccccc2Cl)no1)NC1CCCCC1	-10%	6%	-6.2	5.2%	0.9	2.2%	3%
COC(=O)[C@@]1(Cc2ccc(F)cc2)[C@H]2c3cc(C(=O)N4CCCC4)n(CCO)c3C[C@H]2CN1C(=O)c1ccccc1	/	0%&-6%	-7.8&8.2	0.6%	-6.7	3.2%	-2%
COc1ccc(CNC(=O)CN(C(=O)c2csnn2)c2ccc3c(c2)OCCO3)cc1	?	25%	-1.8	2.2%	3.8	/	-1%
O=C(Cn1nnc(-c2cccc(C(F)(F)F)c2)n1)N1CCOCC1	-36%[inhibitor]	15%	1.6	4.9%[38.3 µM]	-1.3	-0.7%	10%
CCOC(=O)C1CC(=O)c2ccccc2C1c1ccccc1 (centres undefined)	10%	/	/	2.4%	-3.1	/	-13%

Continuation.
mol	gsp ag	Sfp inh	Menin-MLL FL inh	PINK1 modulator	D2 agonist	ClpP mod	gsp antag
OC[C@@H]1[C@@H](c2ccc(Cl)cc2)C(c2ccc(F)cc2)=NN1c1ccccc1	/	10%	-0.8	2.6%	-0.5	4.4%	-4%
O=C(NNC(=O)c1cccs1)c1ccncc1	0%[15.4 µM]	5%	0.7	-0.6%	1.6	/	4%
Cc1cc(S(=O)(=O)NCCc2ccccc2)ccc1-n1cnnn1	-20%	11%	3.9	-2.5%	1.7	/	-1%
CNC(=S)N/N=C/c1ccco1	1%	56µM*	0.1	-1.1%	-3.6	0.7%	1%
COc1ccc2oc(=O)cc(CN3CCN(Cc4ccccc4)CC3)c2c1	-17%	/	/	0.0%&0.4%	-1.8	?	/
Cc1cc(C(=O)NN=Cc2ccc(-c3ccc(F)cc3)o2)c(C)o1	-5%	/	/	11%	-0.3	18%	-26%
O=C(Nc1ccccc1N1CCCCC1)C1CCN(C(=O)c2ccc(Cl)cc2)CC1	-3%[15.4 µM]	/	/	23%	-6.4	0.7%	?
CCc1nc(OCc2ccco2)c2sc3nc4c(cc3c2n1)COC(C)(C)C4	18%	?	2.0	8.1%	-1.5	-17%	?
CC(C)n1c(SC2CCOC2=O)nc2ccccc21 (centres undefined)	18%	8%	3.5	0.4%	-6.9	0.0%	13%
Cc1ccc(C)c(/C=N/Nc2ccccn2)c1	5%[15.4 µM]	-6%	-4.1	6.0%	-2.4	/	4%
CN(/N=C/c1cc([N+](=O)[O-])ccc1O)c1ccccc1	-6%	-4%	1.5	6.5%	-7.6	-1.4%	2%
CCOC(=O)c1c(C2CCN(C(=O)OCC)CC2)nc2ccccn12	-2%	1%	3.1	0.9%	0.8	-3.5%	5%
Cc1cc(C)n(C(=O)c2ccc(C)c(F)c2F)n1	-7%	13%	2.9	2.2%	0.0	0.7%	-18%

High-throughput results from PubChem BioAssay.
